Source: PubChem (several laboratories)
Beta cell apopt: beta cell apoptosis inhibition. 300,000 tested, 0.8% active. protection from apoptosis, % (no concentration beside the values). INS-1E cytokine-induced death, ATP luminescence, 48 h; percent of positive-control rescue, neutral wells zero;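 active means all replicates at 75% or more, or half of them and the mean; inconclusive means half reach 75% but not the mean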;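 further: 0% = cytokine-treated negative control wells and 100% = positive control rescue; higher means more ATP so stronger rescue from cytokine killing; wells of about 40 µL received 100 nL stock; the first replicate is given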
RanGTP-Imp inh: inhibitors of RanGTP-importin-beta interaction, primary screen, biochemical, FRET, CFP-Ran, YFP-importin-beta, homogeneous; cell-free CFP-Ran/YFP-importin-beta FRET ratio; inhibition, % (concentration not given with the values); 300,000 tested, 1.1% active; AID 2216;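 active means most replicates above 15%; inconclusive means exactly half above 15%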;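 further: 0% = DMSO wells and 100% = Ran loaded with GDP instead of GTP; wells of about 40 µL received 100 nL stock; the first replicate is given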
Calb FLC: affects C. albicans growth with fluconazole. AID 1979. 300,000 tested, 0.57% active. C. albicans CaCi-2 (fluconazole-resistant clinical isolate) + fluconazole, Alamar Blue growth, 48 h. growth inhibition, % (test concentration not listed);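 active means most replicates above 75%; inconclusive means exactly half above 75%; inactive means most below 75%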;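 further: all wells also contain fluconazole at 8 µg/ml as a sub-toxic cotreatment; 0% = median of DMSO wells and 100% = median of geldanamycin control wells; wells of about 8 µL received 7.5 nL stock; the first replicate is given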
MLL AF4-AF9 inh: MLL-AF4/AF9 protein interaction inhibition | 350,000 tested, 0.47% active | P42568 | AlphaScreen, biotin-AF4 peptide binding to FLAG-AF9 | inhibition, % at 10 µM;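 active means every replicate reaching a set inhibition limit, whatever the replicate mean, cut at about 25% in these data; inconclusive means mean inhibition reaches that limit but some replicates miss it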;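 further: 0% = plate neutral control median and 100% = total signal loss; the record names both 10 and 1 µM as test concentration; the first replicate is given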
Target sequence (P42568 whole entry, looked up): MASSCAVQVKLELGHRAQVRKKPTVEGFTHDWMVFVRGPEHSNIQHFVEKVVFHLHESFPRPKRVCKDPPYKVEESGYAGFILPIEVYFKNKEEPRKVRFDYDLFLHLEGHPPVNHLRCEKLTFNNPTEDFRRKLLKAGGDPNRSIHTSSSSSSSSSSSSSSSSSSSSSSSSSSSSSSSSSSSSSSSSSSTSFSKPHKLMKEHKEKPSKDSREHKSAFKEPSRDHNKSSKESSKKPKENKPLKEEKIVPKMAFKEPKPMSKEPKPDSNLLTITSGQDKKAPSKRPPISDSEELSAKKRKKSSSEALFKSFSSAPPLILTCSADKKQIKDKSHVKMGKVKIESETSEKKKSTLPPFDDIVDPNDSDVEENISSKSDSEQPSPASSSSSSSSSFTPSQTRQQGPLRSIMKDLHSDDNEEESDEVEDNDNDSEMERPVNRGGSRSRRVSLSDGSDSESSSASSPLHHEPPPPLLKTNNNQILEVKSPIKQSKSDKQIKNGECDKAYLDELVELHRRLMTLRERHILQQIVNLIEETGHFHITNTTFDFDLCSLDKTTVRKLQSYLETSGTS
T cruzi inh: T. cruzi replication inhibition | T. cruzi beta-gal in NIH3T3, luminescence, 90 h | inhibition, % (no concentration beside the values) | 300,000 tested, 1.4% active | AID 1885;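 active means mean inhibition across valid replicates above about 55%, limit read from the data; inconclusive means mean below that limit but half or more replicates reach it; inactive means mean below it, under half of replicates reach it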;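 further: signal also drops with host cell toxicity which is not excluded here; 0% = plate median of DMSO wells and 100% = zero luminescence signal; higher percent means less beta-gal luminescence so fewer parasites; stock transfer was 50 nL into about 50 µL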
Bfl-1 A1 inh: inhibitors of the anti-apoptotic protein A1, read as caspase activation; MEF A1-2A-BIM cells, Caspase-Glo 3/7 luminescence, 3 h; percent of clofoctol response, vehicle zero; caspase activation, % (concentration not given with the values); 330,000 tested, 0.066% active; AID 2462;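 active means over half of replicate activation scores above 10%, or exactly half above 10 with the replicate mean above 10; inconclusive means replicate mean below 10 yet half the replicates above 10; inactive means over half of replicates below 10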;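 further: wells of about 30 µL received 50 nL stock; many hits fall short of the cut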
Vif A3G: HIV-1 Vif–A3G interaction blockers – biochemical, TR-FRET, GST-Vif 1-94, biotin-A3G peptide, dose response retest, primary screen (AID 1117319) | TR-FRET GST-Vif / biotin-A3G peptide binding; higher % means a stronger effect; test concentration not given here; strong numbers were not always called active | inhibition, %; hits with a dose series show IC50 in µM | 260,000 tested, 0.57% active;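 active means above the screen mean plus three standard deviations and confirmed in dose response; inconclusive means results disagree or hit not tested in dose response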;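 further: Vif residues 1-94 fused to GST binding biotinylated APOBEC3G peptide 110-148; 0% = full assay without inhibitor and 100% = GST in place of GST-Vif; retest series ran down from 100 µM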
rRNA inh HTS: selective bacterial rRNA inhibition in E. coli; 350,000 tested, 1.6% active; AID 720706; E. coli WT GFP vs humanized-ribosome RFP mutants, fluorescence, 24 h; active compounds read low; DMSO median 0, no signal -100; GFP signal change (wild-type ribosome), % (test concentration not listed);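 active means significant combined selectivity score with lowered wild-type GFP, culture density cut under 30%, mutant RFP and density less affected; inactive means any of these conditions unmet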; further: one replicate is shown; some compounds called inactive have numbers as strong as hits
rRNA inh HTS OD600: also measured in rRNA inh HTS; calls as there; OD600 change, %; measured here: OD600 growth;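 optical density of the mix in the first replicate; 0 = DMSO median and -100 = no signal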
rRNA inh HTS RFP: also measured in rRNA inh HTS; calls as there; RFP signal change, %; measured here: RFP humanized mutant strains;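 first replicate; 0 = DMSO median and -100 = no signal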
* marks the source's active call; other numbers are inactive results; ? = inconclusive; · = no result given.

SMILES	Beta cell apopt	RanGTP-Imp inh	Calb FLC	MLL AF4-AF9 inh	T cruzi inh	Bfl-1 A1 inh	Vif A3G	rRNA inh HTS	rRNA inh HTS OD600	rRNA inh HTS RFP
CCNS(=O)(=O)c1ccc(NC(=O)c2ccccc2OCC)cc1	-0.9	-1.1	8.4	0.7	21.4	0.8	-3.0%	2.1	0.1	-1.0
OCCCCNCc1ccc(OCc2ccccc2Cl)cc1	3.8	-1.0	-4.5	·	40.8	0.2	5.9%	·	·	·
CCCCNC(=O)CNC(=S)N(Cc1ccc(C)cc1)Cc1ccco1	-3.8	4.3	-6.8	1.0	3.1	-0.2	-2.0%	-5.8	-9.6	-0.5
COc1ccc(OC)c(CCNC(=O)CN2C(=O)COc3ccc(S(=O)(=O)N4CCOCC4)cc32)c1	6.0	2.5	0.9	11.7	3.7	-2.3	·	10.4	10.4	4.9
COc1ccc(CCNC(=O)C23CN(Cc4ccccc4)CC2C(c2ccc([N+](=O)[O-])cc2)=NO3)cc1 (stereo unspecified)	-1.9	-4.5	15.4	10.4	35.5	-1.6	4.1%	6.2	2.7	-1.2
O=c1[nH]c2ccccc2nc1C(F)(F)F	-6.8	-2.0	-4.2	3.5	-6.4	2.4	·	6.1	-1.5	-0.6
Cc1c(NS(=O)(=O)c2ccc(Br)s2)c(=O)n(-c2ccccc2)n1C	0.6	11.0	-0.8	·	-5.6	0.0	-5.8%	·	·	·
O=C1OCCC1Sc1nnnn1-c1ccc(Cl)cc1 (stereo unspecified)	-3.5	1.3	-15.9	-0.7	-4.7	-0.9	-10.2%	3.6	-1.9	-1.6
CC(C)C1/C(=N/O)CC(c2ccccc2)NC1c1ccccc1 (stereo unspecified)	-6.4	-0.9	-8.2	3.9	-2.2	0.2	·	3.1	3.4	3.9
C=CCn1c(SCC(=O)c2c(C)[nH]c3ccccc23)nnc1-c1ccncc1	0.3	-0.7	-1.3	-7.7	13.1	-0.1	·	1.3	6.3	1.1
Cc1ccn(CC(=O)N2CCCC(Nc3ccc(F)c(F)c3)C2)n1 (stereo unspecified)	-1.7	-1.2	8.4	-0.9	-3.5	-0.1	·	0.4	4.6	2.0
CCCCn1c(-c2csc(CC)c2)n[nH]c1=S	-18.4	3.1	?	·	-1.5	0.2	-6.6%	·	·	·
CC1CCc2cc(F)ccc2N1S(=O)(=O)c1ccc(Cl)nc1 (stereo unspecified)	1.6	0.1	11.1	·	9.7	-0.1	·	·	·	·
COC(=O)C(C#N)C(=C1C(=O)CC(C)(C)CC1=O)c1ccc(O)cc1 (stereo unspecified)	-3.5	-1.1	5.0	·	-2.3	0.7	3.5%	·	·	·
O=C(/C=C/c1c(F)cccc1Cl)c1ccc(O)cc1	4.2	-1.9	-3.6	?	-9.6	0.3	?	-55.8	-78.3	-29.9
COc1ccc(C2CC(C(F)(F)F)n3nc(C(=O)O)c(Br)c3N2)cc1 (stereo unspecified)	-10.2	1.5	1.9	·	-32.3	-0.2	8.5%	·	·	·
O=C(CC(SCCO)c1ccc2c(c1)OCO2)c1cccs1 (stereo unspecified)	2.1	-3.5	-29.9	·	-8.1	-2.3	3.5%	-12.8	-10.2	0.2
O=C(O)c1ccc(/C=C/c2nc3sc4c(c3c(=O)[nH]2)CCC4)cc1	0.2	5.2	5.5	-2.5	-15.4	0.9	4.2%	-0.1	-6.9	-6.7
O=C(CCCCCNC(=O)N1CCn2c1nc1ccccc12)N[C@H](C(=O)O)c1ccccc1	-20.3	-0.1	-0.4	2.1	-20.4	0.0	·	·	·	·
O=C(CN1C(=O)C(=O)N(CCC2=CCCCC2)C1=O)c1c[nH]c2ccccc12	-6.6	·	·	-3.3	·	-0.2	·	-57.0	-79.0	-16.0
COc1cccc(CC2(CO)CCN(C(=O)NCCc3ccccc3)CC2)c1	-0.7	2.3	2.2	5.9	7.1	0.3	·	-5.7	-8.2	1.5
Cc1ccc(C(=O)NNC(=O)CNc2cccc(Cl)c2)cc1	2.5	-6.6	1.2	-1.2	-7.8	0.3	·	22.2	15.9	4.0
Cc1ccc(S(=O)(=O)c2cc3c(=O)n4ccccc4nc3n(C)c2=N)cc1	-14.1	173.9*	-3.9	·	6.6	-0.9	24.0%	·	·	·
COc1ccc(CCNC(=O)c2cnc(Cl)c(Cl)c2)cc1	-1.1	-2.5	·	3.7	11.5	0.6	-1.6%	2.0	-1.7	-1.7
CCn1cc(CN2CCC(n3nccc3NC(=O)c3cccc(F)c3)CC2)c(C)n1	-4.7	2.9	-3.8	-16.5	13.3	0.5	6.2%	-1.3	3.5	-0.8
CC(C)CCNC(=O)C1CCN(S(=O)(=O)c2ccc3nc4c(c(C(=O)O)c3c2)CCCCC4)CC1	-3.4	-2.1	5.4	-2.9	-16.1	-0.2	·	7.6	11.8	-0.9
CCOC(=O)N1CCN(S(=O)(=O)c2ccc(C)cc2)C1	-6.4	?	-1.3	1.0	-7.9	0.2	9.1%	10.4	5.3	-8.2
Cc1ccc(S(=O)(=O)Oc2ccc3ccc(O)cc3c2)cc1	-8.9	-2.5	0.7	-1.6	-12.8	0.8	·	-18.8	-15.3	-1.1
CC(=O)NC(CCCN1C(=O)c2ccccc2C1=O)c1nnn(C)n1 (stereo unspecified)	-3.2	-2.9	-0.4	·	16.0	2.2	-4.9%	·	·	·
Cc1ccc(NC(=O)N2CCCn3c(SCC(=O)c4ccccc4)nnc32)cc1	2.7	-0.6	1.2	1.0	4.4	-0.2	-6.0%	11.7	-4.3	2.5
COc1cccc(OC)c1OCCOCCn1cnc2ccccc2c1=O	-3.9	2.4	14.8	·	4.9	-0.8	69.0%	·	·	·
CCc1ccccc1-n1ncc(C(=O)Nc2ccccc2OC)c1C	1.2	3.4	3.1	-5.0	9.7	1.4	·	-15.2	-14.9	-1.4
CCOC(=O)c1c(C)[nH]sc1=S	·	-0.7	0.0	·	-11.0	·	-23.0%	·	·	·
CCCCn1nc2cc(C(=O)NCC3CC3)ccc2c1OCC	1.3	0.5	-5.5	2.2	8.6	-0.4	-0.9%	-4.6	1.3	4.4
CC1CCCCN1C(=O)Nc1ccccc1Cl (stereo unspecified)	-12.3	4.8	-2.1	-1.0	-35.6	-0.6	·	14.1	15.9	4.5
COc1ccc(-c2csc3ncn(-c4cccc(C)c4)c(=O)c23)cc1OC	-7.0	1.6	19.2	2.2	28.9	0.8	-0.7%	-22.6	-20.0	-2.0
COc1ccc2nc(SCC(=O)Nc3ccccc3C)[nH]c2c1	-0.6	2.9	2.3	·	-14.4	-0.2	2.5%	·	·	·
O=C(CCC1CCCCC1)NCCS(=O)(=O)N1CCN(c2ccc(F)cc2)CC1	·	9.1	-10.4	1.9	-5.4	0.2	-2.6%	0.1	-0.5	-0.6
O=C(NCC1CCCO1)C1CCN(S(=O)(=O)c2cccc3nonc23)CC1 (stereo unspecified)	-6.0	-2.4	-8.5	·	-5.9	-0.7	2.9%	·	·	·
Cc1ccc(-n2cnn(-c3ccc([N+](=O)[O-])cc3[N+](=O)[O-])c2=O)cc1	-1.9	-3.1	11.7	5.8	57.2*	-2.5	1.8%	-1.3	11.3	-3.2
Cc1ccc(CC2S/C(=C(/C#N)C(=O)NCc3ccco3)N(c3ccccc3)C2=O)cc1 (stereo unspecified)	-6.1	5.6	5.1	·	-1.1	2.2	16.6%	·	·	·
Cc1ccc(NS(=O)(=O)c2ccccc2)c2c1CC(C)(C)O2	-6.3	0.8	12.0	·	-0.3	-1.3	11.7%	·	·	·
C=CCNC(C(=O)Nc1cccc(OC)c1)c1ccccc1 (stereo unspecified)	0.6	?	4.6	-2.0	-9.8	0.4	-2.6%	-4.1	-15.7	-3.1
COc1ccc(C2=NOC(C(=O)Nc3ccc(C)cc3)C2)cc1OC (stereo unspecified)	1.4	-0.5	2.7	·	7.3	0.3	?	·	·	·
CN(C)CCCn1c(NC(=O)C2CCCCC2)nc2ccccc21	0.0	2.6	-1.0	·	17.7	0.2	8.3%	·	·	·
CC(C)CC(CO)N1CCN(C(=O)c2ccc(Cl)c(Cl)c2)CCC1=O (stereo unspecified)	-4.5	0.0	1.1	·	-3.9	-0.2	·	0.1	7.9	-0.6
COc1ccccc1CNC(=O)C1CCN(S(=O)(=O)c2ccc3c(c2)NC(=O)CO3)CC1	-0.5	5.2	0.6	4.2	0.1	1.0	-3.1%	-3.2	-6.6	-0.5
COCCNC(=S)N(CCc1c(C)[nH]c2ccc(F)cc12)Cc1cccs1	-1.4	-2.2	37.6	6.0	28.3	-0.1	0.0%	-46.6	-44.8	-4.6
CC(=O)OC1C([N+]2(C)CCCCC2)C[C@H]2C3CC[C@H]4C[C@H](OC(C)=O)C([N+]5(C)CCCCC5)CC4(C)[C@H]3CCC12C (stereo partly specified)	-2.3	-2.5	28.6	-3.2	-4.3	2.3	·	-7.3	15.8	2.7
O=C(O)c1ccccc1C(=O)NCc1ccc2c(c1)OCO2	-5.3	12.3	-10.1	-4.8	-13.0	-0.4	9.0%	8.1	5.8	2.5
COc1cccc(C(=O)NC23CC4CC(CC(C4)C2)C3)c1	3.7	5.5	-4.1	0.1	-10.5	-0.6	·	-20.0	-20.1	-1.3
CCN(CC)c1ccc(/C=N/N2CCOCC2)c(O)c1	5.0	5.6	?	·	10.0	-1.7	-1.2%	·	·	·
Clc1ccc(OCc2nn3c(-c4ccco4)nnc3s2)cc1	2.4	4.1	-24.7	·	9.5	0.1	2.0%	·	·	·
COc1ccccc1CNC(=O)c1sccc1-c1ccccc1	-3.1	-0.1	12.2	-2.7	25.7	-0.5	·	-11.3	-42.8	-8.5
O=C(Nc1nccs1)[C@@H]1CCCN1S(=O)(=O)c1ccc(Cl)cc1	-3.2	·	·	2.7	·	-0.2	0.6%	-0.3	0.5	0.1
O=C(N/N=C/c1ccc(OC(F)F)cc1OC(F)F)c1ccc(Br)cc1	-1.5	-1.4	-4.0	·	12.9	0.0	7.3%	·	·	·
Cc1nnc(SCC(=O)Nc2sc3c(c2C(N)=O)CCCC3)[nH]c1=O	-2.9	-0.1	2.0	·	3.2	0.0	21.5%	·	·	·
Cc1ccc(OCCCC(=O)Nc2ccc(Cl)c(S(=O)(=O)N3CCOCC3)c2)cc1	-0.1	·	·	0.8	·	1.9	-15.3%	-33.4	-47.0	-9.1

Only part of the results is shown; rates above refer to the full screens.
